PABP polyA inh – PABP poly(A) RNA binding inhibitors, primary screen, biochemical, fluorescence polarization, uHTS; Polyadenylate-binding protein 1 (Homo sapiens), P11940; inhibition, % at 35 µM; 1% of 290,000 active; AID 2014, 2009;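 active means 50% or more with normal probe brightness, or confirmed in later tests; about a fifth of its hits are not listed in these tables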;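 further: calls also rest on retests at 20 µM and on dose response follow-up; controls were probe without protein and protein plus probe with vehicle; some compounds called inactive have numbers as strong as hits; many hits fall short of the cut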
Target sequence (P11940 whole entry, looked up): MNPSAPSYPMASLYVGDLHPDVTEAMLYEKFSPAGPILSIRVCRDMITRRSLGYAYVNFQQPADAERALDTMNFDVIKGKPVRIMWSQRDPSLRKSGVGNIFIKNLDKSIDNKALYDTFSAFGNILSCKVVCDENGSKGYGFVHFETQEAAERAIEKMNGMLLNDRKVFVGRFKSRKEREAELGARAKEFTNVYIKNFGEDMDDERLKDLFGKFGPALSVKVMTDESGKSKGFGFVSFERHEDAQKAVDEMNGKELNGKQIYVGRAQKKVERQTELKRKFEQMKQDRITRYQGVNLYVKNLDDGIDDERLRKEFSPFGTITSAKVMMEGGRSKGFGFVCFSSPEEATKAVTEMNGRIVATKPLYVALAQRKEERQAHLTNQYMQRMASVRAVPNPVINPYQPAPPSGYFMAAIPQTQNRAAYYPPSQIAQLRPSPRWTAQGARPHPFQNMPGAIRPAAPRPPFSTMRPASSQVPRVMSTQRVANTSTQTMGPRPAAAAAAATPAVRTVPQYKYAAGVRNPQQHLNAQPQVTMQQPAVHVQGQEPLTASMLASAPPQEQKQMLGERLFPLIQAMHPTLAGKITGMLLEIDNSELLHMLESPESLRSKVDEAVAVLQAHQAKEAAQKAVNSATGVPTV
MT1-MMP act inh – blockers of MT1-MMP proenzyme processing, primary screen, HT1080 RFP-PRO-GFP cells, GFP/RFP fluorescence. GFP/RFP ratio fluorescence, overnight; percent of plate control window, DMSO zero. GFP/RFP ratio change, % at 20 µM. Matrix metalloproteinase-14 (Homo sapiens), P50281. 0.061% of 360,000 active. AID 651647, 2012;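 active means GFP/RFP ratio change of at least 30% with cell ATP level not reduced by more than half and red fluorescence within 50% of control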; further: strong numbers were not always called active
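Assay system: HT1080 cells carrying an RFP-PRO-GFP reporter | Dosing: Single dose of 20 µM compound, 1% DMSO final | Incubation: Cells overnight before dosing, compound overnight, 37 °C, 5% CO2 | Evaluation: GFP/RFP fluorescence ratio | Control set: DMSO and RFP-L50D-GFP cell wells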
CSC inhib – cancer stem cell viability inhibitors, primary screen, luminescence; cancer stem cell-like cells viability; inhibition, % at 7.5 µM; AID 2717, 2010; 1.1% of 300,000 active;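 active means mean at 75% or more and at least half the replicates too; tested in HMLE shEcad cells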;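 further: 0% = median of negative and 100% = median of positive control wells; the first replicate is given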
eIF4H FP inh – human eIF4H binding inhibitors, primary screen, translation initiation inhibitor project, biochemical, uHTS, fluorescence polarization. Eukaryotic translation initiation factor 4H (Homo sapiens), Q15056. eIF4H fluorescence polarization binding assay. inhibition, % at 35 µM. 0.94% of 290,000 active. AID 2012, 2009;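 active means 50% or more with normal probe brightness, or confirmed in later tests; about a fifth of its hits are not listed in these tables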;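 further: calls also rest on retests at 20 µM and on dose response follow-up; 0% = protein and probe with vehicle and 100% = probe without protein; strong numbers were not always called active; many hits fall short of the cut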
Rce1 inhib – yeast Rce1p protease inhibitors, primary screen, biochemical, fluorescence, cell-free homogeneous; CAAX prenyl protease 2 (Saccharomyces cerevisiae (strain ATCC 204508 / S288c)), Q03530; yeast membranes, quenched prenylated peptide cleavage fluorescence; calls only; 0.27% of 290,000 active;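 active means fall in fluorescence gain of 50% or more versus controls, with final raw signal at or below 3038400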;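 further: plate controls were neutral control wells for no effect and wells lacking membranes for full effect; tested at 10 µM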
Yeast UUG start – modulators of yeast start codon fidelity, primary screen, whole organism, S. cerevisiae, single point, plate reader. S. cerevisiae UUG-firefly luciferase reporter, luminescence/redox ratio. activity score, % at 18.7 µM. 0.13% of 350,000 active;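 active means replicate mean at a twofold rise or more, about +100% in these data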;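 further: firefly luciferase made from a UUG start codon reports start codon fidelity; reporter light over untreated wells divided by growth signal over untreated wells; some hits fall short of that in this replicate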
Env fusion inh – inhibitors of HIV-1 Env-driven cell-cell fusion, primary screen, HeLa-JRFL effector, CEM21 target cells, luciferase. inhibition, % at 12.3 µM. 1.1% of 360,000 active;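 active means mean replicate inhibition score of at least 50 and every replicate individually at or above 50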;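 further: 0% = plate neutral controls and 100% = maraviroc near 300 nM; one replicate is shown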
eIF4H FP inh retest – further read-out of eIF4H FP inh, marked with its call; inhibition, %; compound at 20 µM; confirmation average;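 mean of two retest wells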
PABP polyA inh retest – further read-out of PABP polyA inh, marked with its call; inhibition, %; compound at 20 µM; confirmation repeats;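 mean of two retest wells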
MT1-MMP act inh RFP – second read-out of MT1-MMP act inh, no call of its own (marks repeat the call); RFP signal change, %; measured here: RFP expression control read;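 0 = vehicle wells; hits needed this value within 50% of zero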
The depositor's hits bear a star; i = inactive; . = not tested or not shown.

SMILES	PABP polyA inh	MT1-MMP act inh	MT1-MMP act inh RFP	CSC inhib	eIF4H FP inh	Rce1 inhib	Yeast UUG start	Env fusion inh	others
CC1CCCCC1NC(=O)C1CCN(S(=O)(=O)c2ccc3c(c2)CCC(=O)N3)CC1 (stereo unspecified)	-3	-5	0	5	-1	i	0	-2
COc1ccc(OC)c(NC(=O)COC(=O)CCc2nc3ccccc3c(=O)[nH]2)c1	.	24	-3	.	.	.	6	7
COc1ccc(Cl)cc1NC(=O)C1CC(c2ccccc2O)=NO1 (stereo unspecified)	-8	1	2	-6	-7	i	-9	-21
Cc1cccc(C(=O)NC(=S)NNC(=O)c2ccc(Cl)cc2)c1	-5	3	-4	37	18	i	.	.
CCOC(=O)c1cc(-c2c(Cl)cccc2Cl)no1	9	1	5	-36	-3	i	.	3
COc1ccccc1NS(=O)(=O)c1cc(NC(=O)c2cccs2)ccc1N1CCOCC1	4	0	-4	-6	-11	i	.	-137
CCc1nn(CC(=O)NCCc2ccc(OC)cc2OC)c(=O)c2cc3occc3n12	-3	1	3	-15	-2	i	-15	-1
CCc1ccc([C@@H]2CC=C(C(=O)O)CN2S(=O)(=O)c2ccc(C)cc2)cc1	.	1	0	-1	.	.	-8	-20
COCC(=O)N(C)c1nnc(-c2cnc(C)cn2)s1	2	-6	-2	-12	2	i	-9	-36
COc1ccc(CN(Cc2ccc(C(=O)O)cc2)C(=S)Nc2ccccc2Cl)cc1OC	7	-3	1	2	-5	i	-14	4
COc1ccc(C(=O)c2sc3nc(-c4ccccc4)ccc3c2N)cc1	10	-46	2	41	5	i	.	.
CCCOc1ccc(CC2CCC(=O)NC2=O)cc1 (stereo unspecified)	14	3	4	-7	3	i	-11	-5
Cc1cccc(C(=O)O/N=C(\N)c2ccc(Cl)cc2)c1	3	2	0	-15	-12	i	.	-89
S=C1NC[C@H](CC2CCCCC2)N1CC1CCCCC1	-11	1	-12	28	-10	i	-24	37
CC1CCN(c2c(NCC3CCC(C(=O)NC4CCCCCC4)CC3)c(=O)c2=O)CC1 (stereo unspecified)	4	9	3	-13	24	i	.	-10
O=C(C/C(=N/O)c1ccccc1O)C(F)F	0	-4	3	.	-3	i	-1	.
Oc1ccccc1N1CCN(c2ncnc3scc(-c4ccc(F)cc4)c23)CC1	12	-6	-5	16	0	i	-20	28
COc1ccc(S(=O)(=O)NCc2ccccn2)c(C)c1C	0	-2	2	-6	-8	.	-18	10
Cc1cccc(CNC(=O)C2CCC(=O)N(C3CC3)C2)c1 (stereo unspecified)	-4	2	5	-10	-7	i	-10	.
CCC(C)N1CCC(Oc2ccc(C(=O)NCc3ccccn3)cc2)CC1 (stereo unspecified)	15	1	8	16	-17	i	-17	-2
O=C(CCn1c(=O)[nH]c2ccccc2c1=O)NCCSCc1ccccc1	4	2	0	-4	3	i	-4	3
COCCNC(=O)CSc1nc2ccc(N3CCOCC3)cc2c(=O)n1Cc1ccc(OC)cc1	5	-12	-8	56	5	i	-13	-39
Cc1ccc(S(=O)(=O)NC(=O)Nc2ccc(C)cc2C)cc1	9	1	1	.	3	i	-17	-1
Nc1nc(-c2ccccc2)cc(-c2ccccc2)n1	9	-2	-1	0	0	i	4	-9
C[C@@H]1CN([C@H](C)CO)S(=O)(=O)c2ccc(Br)cc2O[C@@H]1CN(C)Cc1ccc(-c2ccccc2)cc1	.	-4	-6	.	.	.	-2	76*

Random excerpt: 2 compounds from above
SMILES	PABP polyA inh	MT1-MMP act inh	MT1-MMP act inh RFP	CSC inhib	eIF4H FP inh	Rce1 inhib	Yeast UUG start	Env fusion inh	others
CCc1nn(CC(=O)NCCc2ccc(OC)cc2OC)c(=O)c2cc3occc3n12	-3	1	3	-15	-2	i	-15	-1
C[C@@H]1CN([C@H](C)CO)S(=O)(=O)c2ccc(Br)cc2O[C@@H]1CN(C)Cc1ccc(-c2ccccc2)cc1	.	-4	-6	.	.	.	-2	76*

Sorted by formula weight (rising): part of the list above
SMILES	PABP polyA inh	MT1-MMP act inh	MT1-MMP act inh RFP	CSC inhib	eIF4H FP inh	Rce1 inhib	Yeast UUG start	Env fusion inh	others
O=C(C/C(=N/O)c1ccccc1O)C(F)F	0	-4	3	.	-3	i	-1	.
Nc1nc(-c2ccccc2)cc(-c2ccccc2)n1	9	-2	-1	0	0	i	4	-9
COCC(=O)N(C)c1nnc(-c2cnc(C)cn2)s1	2	-6	-2	-12	2	i	-9	-36
S=C1NC[C@H](CC2CCCCC2)N1CC1CCCCC1	-11	1	-12	28	-10	i	-24	37
Cc1ccc(S(=O)(=O)NC(=O)Nc2ccc(C)cc2C)cc1	9	1	1	.	3	i	-17	-1
Cc1cccc(C(=O)NC(=S)NNC(=O)c2ccc(Cl)cc2)c1	-5	3	-4	37	18	i	.	.
COc1ccc(C(=O)c2sc3nc(-c4ccccc4)ccc3c2N)cc1	10	-46	2	41	5	i	.	.
CCC(C)N1CCC(Oc2ccc(C(=O)NCc3ccccn3)cc2)CC1 (stereo unspecified)	15	1	8	16	-17	i	-17	-2
O=C(CCn1c(=O)[nH]c2ccccc2c1=O)NCCSCc1ccccc1	4	2	0	-4	3	i	-4	3
COc1ccc(OC)c(NC(=O)COC(=O)CCc2nc3ccccc3c(=O)[nH]2)c1	.	24	-3	.	.	.	6	7
CC1CCCCC1NC(=O)C1CCN(S(=O)(=O)c2ccc3c(c2)CCC(=O)N3)CC1 (stereo unspecified)	-3	-5	0	5	-1	i	0	-2
COc1ccc(CN(Cc2ccc(C(=O)O)cc2)C(=S)Nc2ccccc2Cl)cc1OC	7	-3	1	2	-5	i	-14	4
COc1ccccc1NS(=O)(=O)c1cc(NC(=O)c2cccs2)ccc1N1CCOCC1	4	0	-4	-6	-11	i	.	-137

The results go on.
SMILES	PABP polyA inh	MT1-MMP act inh	MT1-MMP act inh RFP	CSC inhib	eIF4H FP inh	Rce1 inhib	Yeast UUG start	Env fusion inh	others
CCOC1=C2[C@@H](CN(S(=O)(=O)c3ccc(C)cc3)[C@H]2c2cccc3ccccc23)[C@H]2C(=O)NC(=O)[C@H]2C1	.	-8	-6	.	.	.	15	0
O=C(CN1C(=O)CCC1=O)Nc1nc(-c2ccccn2)cs1	8	-1	6	-4	11	i	-15	1
CC(=O)Nc1ccc(C(=O)CSc2nnc3scc(-c4ccccc4)n23)cc1	8	0	-4	-4	-4	i	-13	.
CC(C)(C)OC(=O)N1CCC2(CC1)Oc1ccc(F)cc1C(=O)C21CC(c2ccccc2)=NO1 (stereo unspecified)	.	-17	-15	15	.	i	-13	-52
CCCCCOc1ccc(NC(=O)C2OC3OC(C)(C)OC3C3OC(C)(C)OC23)cc1 (stereo unspecified)	-4	-1	0	-5	-5	i	.	8
Cc1ccc2nc(N3CCN(C)CC3)c(C#N)cc2c1	-8	-5	0	.	3	i	-11	-105
FC(F)(F)c1nnc2ccc(N3CCN(c4ccccc4)CC3)nn12	1	1	4	-5	-7	i	-1	.
CC(C)(C)N(Cc1ccccc1)C(=O)COC(=O)[C@@H]1CCCN1C(=O)c1cccs1	.	0	-2	-9	.	i	.	.
CN(c1ccccc1)C1CCCCC1NS(=O)(=O)c1ccc(Cl)cc1 (stereo unspecified)	2	-6	-8	-7	-7	i	.	47
Cc1ccc(CN2C3CCCC2CC(NC(=O)c2ccc(F)cc2)C3)cc1 (stereo unspecified)	3	-1	0	-12	0	i	-8	-3
Cc1nn(C)c(Cl)c1CN1CCCC(CO)(Cc2cccc(Cl)c2)C1 (stereo unspecified)	-6	1	2	6	-18	.	.	26
CC(NC(=O)Nc1ccccc1)C(c1ccccc1)N1CCOCC1 (stereo unspecified)	11	-5	1	-17	-1	i	-4	-46
CCOc1cc(C)c(Cl)cc1S(=O)(=O)NCCOC	0	4	4	0	1	i	.	25
CCCN(CC(=O)Nc1ccccc1C)C(=O)COC(=O)CSc1ccc([N+](=O)[O-])cc1	.	-2	-6	.	.	i	-18	-11
O=C(NC1CCS(=O)(=O)C1)C1C2CC3CC(C2)CC1C3 (stereo unspecified)	0	5	5	6	-4	i	.	10
O=C(O)CNC(=O)c1ccc(NC(=O)/C(=C/c2ccccc2)NC(=O)c2ccccc2Br)cc1	10	-1	-2	5	7	i	1	7
CCNC(=O)c1ccc(C2SCC(=O)N2CCc2ccccc2)cc1 (stereo unspecified)	2	-1	0	3	-2	i	.	-6
CCOc1ccc(C(=O)Nn2cnnc2)cc1OCC	-4	4	5	-8	-3	i	-18	-40
Cc1ccsc1C(=O)N1CCN(c2ncc(C(F)(F)F)cc2Cl)CC1	3	0	-9	13	1	i	5	39
Cn1cccc1/C=N/NC(N)=S	4	0	3	1	-8	i	-22	-15
Oc1c(C(c2ccco2)N2CCOCC2)sc2ncnn12 (stereo unspecified)	124*	3	3	-7	130	i	3	11	eIF4H FP inh retest=34;PABP polyA inh retest=68*
Cc1onc(-c2ccccc2)c1C(=O)Nc1nncs1	11	1	1	-22	-2	i	.	0
CCn1ccnc1CN(C)Cc1cn(-c2cccc(C)c2)nc1-c1cccc(F)c1	2	-5	0	63	5	i	-11	-40
O=[N+]([O-])c1ccc(N=NNc2ccccc2)cc1	1	6	2	28	1	i	.	.
Cc1nc(Oc2ccc(Cl)cc2)c2oc3ccccc3c2n1	-2	-3	-2	-7	-8	i	-14	32

More entries:
SMILES	PABP polyA inh	MT1-MMP act inh	MT1-MMP act inh RFP	CSC inhib	eIF4H FP inh	Rce1 inhib	Yeast UUG start	Env fusion inh	others
COc1ccc(NC(=O)COC(=O)c2ccc(F)cc2F)cc1	-2	-1	2	-4	-2	i	-15	19
Cc1ccc(N(CC(=O)NCCSCc2ccco2)S(=O)(=O)c2ccc(F)cc2)cc1	10	-1	-3	-8	-1	i	.	-8
Nc1c2c(=O)[nH]c(O)cc2nn1-c1ccccc1	.	-6	4	.	.	.	0	0
CC1(C)Cc2nc3sc4c(N(CCO)CCO)ncnc4c3cc2CO1	3	12	6	16	12	i	7	.
COc1ccc(OCC(=O)N/N=C(\C)CC(=O)Nc2cccc([N+](=O)[O-])c2)cc1	-4	5	6	-6	3	i	.	12
COc1ccc(N2CCN(C(=O)C3=NNC(=O)CC3)CC2)cc1	4	-1	-4	0	10	i	-12	18
C=CCn1c(SCC(=O)c2ccc(O)c(O)c2)nnc1-c1ccc(OC)cc1	.	10	-2	51	.	.	1	4
O=C(Nc1ccc(S(=O)(=O)NCc2ccccc2)cc1)Nc1ccc2c(c1)OCO2	0	6	-9	-12	1	i	-1	.
Cc1ccc(C(=O)NC2CC3CCCC(C2)N3C(=S)NCc2ccco2)cc1 (stereo unspecified)	-1	-1	-4	-11	-12	i	4	7
CCOC(=O)N1CCN(C(=O)c2ccc(Cn3c(=S)[nH]c4cc(OCC)c(OCC)cc4c3=O)cc2)CC1	-11	-5	-18	8	5	i	-1	14
O=C(c1[nH]c(C(F)(F)F)nc1-c1ccccc1)N1CCOCC1	.	0	3	.	.	.	-12	-3
CC(C)(C)c1cc(=O)n2c(C#N)c(C#N)nc2[nH]1	6	0	-3	-5	-4	i	-18	-30
CCCn1c(=O)[nH]c(=O)c2c1nc(-c1ccc(OC)c(Br)c1)n2CCOC	13	5	3	-18	-6	i	.	6
